# Mtb betalactam: beta-lactam sensitization of Mtb H37Rv | inhibition, % at 25 µM | M. tuberculosis H37Rv growth with meropenem, percent inhibition; hits of this screen are not shown here | AID 434955 | 330,000 compounds, 0.27% hits;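 active = about 74% or more and at least 40 points above the plate without the antibiotic, then above 30% in a dose series; inconclusive = first-round hits that could not be retested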;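 note: growth measured after seven days incubation then overnight dye step; 0% = bacteria only wells and 100% = bacteria with antibiotic; twin plates without the antibiotic show which effects depend on it; some results filed as inactive read as strong as hits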
# RecA splice inh: blocks M. tuberculosis RecA intein splicing; P9WHJ3; cell-free RecA intein splicing, fluorescence; inhibition, %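 (about 9 µM by stock and volumes)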; 290,000 compounds, 0.75% hits; in the data active = inhibition above about 30%; inconclusive = no clear call, values can overlap the other calls;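 note: 0% = vehicle wells and 100% = reference inhibitor control wells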
# Target sequence (P9WHJ3 whole entry, looked up, canonical isoform): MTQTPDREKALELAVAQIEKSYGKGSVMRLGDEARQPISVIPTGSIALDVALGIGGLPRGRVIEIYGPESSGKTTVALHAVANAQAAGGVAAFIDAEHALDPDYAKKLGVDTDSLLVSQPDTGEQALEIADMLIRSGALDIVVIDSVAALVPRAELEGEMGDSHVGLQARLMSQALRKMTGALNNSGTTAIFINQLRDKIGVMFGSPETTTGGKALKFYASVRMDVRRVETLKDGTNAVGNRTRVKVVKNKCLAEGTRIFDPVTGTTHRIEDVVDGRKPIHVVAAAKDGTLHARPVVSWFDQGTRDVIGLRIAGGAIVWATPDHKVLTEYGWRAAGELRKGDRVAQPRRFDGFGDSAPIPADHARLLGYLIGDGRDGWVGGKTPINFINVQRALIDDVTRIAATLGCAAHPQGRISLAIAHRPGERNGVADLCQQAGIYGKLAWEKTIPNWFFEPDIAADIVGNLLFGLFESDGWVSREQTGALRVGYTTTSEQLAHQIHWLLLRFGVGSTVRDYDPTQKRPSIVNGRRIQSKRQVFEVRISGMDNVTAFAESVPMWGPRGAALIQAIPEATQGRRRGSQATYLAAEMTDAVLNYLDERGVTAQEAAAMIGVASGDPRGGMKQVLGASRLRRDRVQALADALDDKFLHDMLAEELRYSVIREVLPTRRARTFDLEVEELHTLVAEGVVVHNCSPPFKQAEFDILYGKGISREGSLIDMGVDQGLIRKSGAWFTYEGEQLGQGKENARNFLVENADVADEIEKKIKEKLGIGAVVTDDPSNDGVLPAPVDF
# Mtb growth: M. tuberculosis H37Rv growth inhibitors, H37Rv strain (AID 1626); 220,000 compounds, 0.95% hits; M. tuberculosis H37Rv growth inhibition; higher % means a stronger effect; inhibition, % at 10 µM, or IC50 in µM where a hit was titrated;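 active = confirmed in a dose series; inconclusive = inhibition above 80% but not taken into the dose series; inactive = below 80% or under 30% at every dose of the series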;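 note: bacteria incubated seven days before Alamar blue readout; 0% = bacteria only wells and 100% = bacteria with antibiotic wells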
# YopH inh: inhibitors of Yersinia enterocolitica YopH tyrosine phosphatase; inhibition, %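 (about 10 µM by stock and volumes)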; AID 898; fluorescence Ex485/Em525; 140,000 compounds, 0.16% hits;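 active = inhibition of 50% or more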;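 note: controls were vehicle for no effect and minimum signal wells for full effect; inactives centre near -20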
# Arbovirus inh: antivirals against arbovirus infection; arbovirus infection cell-based antiviral screen; inhibition, % at 10 µM; 200,000 compounds, 0.37% hits; AID 1251;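 active = inhibition from about 30%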;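 note: bluetongue infection of BSR cells; cell survival read as ATP light after 72 h; 0% = infected wells without compound and 100% = uninfected wells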
# * = called active by the depositor; u = inconclusive; x = no result given.
SMILES	Mtb betalactam	RecA splice inh	Mtb growth	YopH inh	Arbovirus inh
O=C(COc1ncnc2ccccc12)Nc1ccc(Cl)c(S(=O)(=O)N2CCOCC2)c1	-7	1.0	-4%	x	x
CCCCCC(=O)N/N=C(\C)c1ccc(N2CCCCC2)cc1	-4	1.1	-3%	-17	0
CC(C)OP(=O)(OC(C)C)C(Nc1ccc([N+](=O)[O-])cc1)c1cccc([N+](=O)[O-])c1 (stereo not drawn)	0	5.0	-7%	x	x
COc1cccc(-c2nnc(NC(=O)Cc3cccs3)s2)c1	5	1.2	0%	-9	-1
CC(C)CCn1c(SCC(=O)OCn2nnc3ccccc3c2=O)nc2ccccc2c1=O	-5	2.9	-9%	-22	6
O=C(c1ccco1)N1CCN(C(=O)c2cc(-c3ccccn3)nc3ccc(Cl)cc23)CC1	3	6.7	2%	-5	-1
COc1cc(C(=O)Nc2nc3ccc(S(=O)(=O)N4CCOCC4)cc3s2)cc(OC)c1OC	9	-14	-5%	-6	3
Cc1ccc(-n2nnc3c(=O)oc4ccccc4c32)cc1	99	-1.5	u	-32	2
CC(=O)NC1C(=O)N(CCc2ccccc2)c2ccc(Br)cc21 (stereo not drawn)	x	x	x	2	-21
COc1ccc(-c2cc(C(=O)OCc3ccccn3)c3ccccc3n2)cc1	55	0.7	x	x	x
CCCCCC(=O)Nc1cccc(C2=NOC3(C2)C[C@@H](C(N)=O)N(C(=O)c2ccc(OC)cc2)C3)c1 (stereo partly drawn)	-5	0.5	-9%	x	x
COc1ccc(Cn2c(C)c(C)c(C#N)c2NC(=O)Nc2ccc(F)cc2)cc1	-1	1.2	-4%	-43	-2
CCC(=O)CC(c1ccc([N+](=O)[O-])cc1)c1c(O)c2ccccc2oc1=O (stereo not drawn)	-1	1.5	4%	-35	8
Cc1ccc(-c2ccc(=O)n(CC(=O)NCC3COCCO3)n2)cc1 (stereo not drawn)	-4	0.2	x	x	x
CC(C)c1ccc(S(=O)(=O)N2CCN(C(=O)CN3C(=O)NC4(CCCC4)C3=O)CC2)cc1	-6	-2.3	x	x	x
COc1ccc(NC(=O)CCNS(=O)(=O)c2ccc(Br)s2)cc1	76	6.7	34%	-5	-2
Cn1c(N)c(C(=O)COC(=O)C2CCCCC2)c(=O)n(C)c1=O	6	-8.0	-1%	4	2
Cc1ccc(C)n1NC(=O)c1ccccc1[N+](=O)[O-]	1	-3.4	4%	x	5
CCOc1cccc(-c2nnc3sc(C4CCCCC4)nn23)c1	99	2.6	71%	-30	-44
COC(=O)c1c(NC(=O)CC2SCC(C(=O)OC)NC2=O)sc2c1CCCC2 (stereo not drawn)	-2	3.2	-8%	-32	-2
Cc1c(C2C(C#N)=C(N)N(c3ccccc3C#N)C3=C2C(=O)CCC3)cnn1C (stereo not drawn)	1	-0.1	0%	-19	-1
Cc1cccc(C)c1NC(=O)CN(C)C(=O)c1ccc(-n2cncn2)c([N+](=O)[O-])c1	-3	-3.7	x	x	x
COc1cc(C(=O)c2ccccc2)c([N+](=O)[O-])cc1OC	-4	-22	-3%	x	x
C#CCSc1nnc(-c2ccc(C)cc2)o1	99	-0.7	u	-16	1
CCOc1cccc2cc(C(=O)Nc3nccs3)c(=O)oc12	98	-0.1	u	-44	-7
COc1cc(/C=c2\sc3nc(=O)c(-c4ccccc4)nn3c2=O)ccc1OCCC(C)C	3	x	4%	12	8
COc1ccc(S(=O)(=O)N/N=C(/C)c2ccncc2)cc1	-14	-1.6	x	x	x
COc1ccc(OC)c(-c2nc3c(C)n[nH]c(=O)c3[nH]2)c1	3	-4.0	-1%	10	-6
CCOC(=O)c1ccc(Nc2ncnc3nc[nH]c23)cc1	-2	-2.1	2%	-22	-7
Cc1ccc(C(=O)N/N=C\c2cc(Br)c(Br)o2)cn1	-8	32*	-9%	x	x
Cc1ccc(C(C)NC(=O)C2CCCC2)c(C)c1 (stereo not drawn)	2	-0.8	x	x	x
Cc1ccc(NC(=O)Nn2cnnc2)c(C)c1	-5	1.9	x	x	x
CCOC(=O)c1cc(C)n(-c2ccccc2)c1C	11	2.7	-9%	x	x
Cc1ccn2c(C(=O)NN=C3CCN(C)CC3)c(C)nc2c1	-5	-1.7	-4%	x	1
CC1CCCCN1C(=O)COC(=O)c1ccc(=O)n(Cc2ccccc2)n1 (stereo not drawn)	-1	-1.3	x	x	x
CCOC(=O)N1CCC(NC(=O)CCN2C(=O)C3C4C=CC(C4)C3C2=O)CC1 (stereo not drawn)	-8	x	-1%	-15	-1
O=C(Nc1nc2ccc(F)cc2s1)Oc1ccccc1	3	0.0	x	x	x
NC(=S)Nc1ccc(Cl)cc1Cl	-1	-1.6	7%	x	x
CC(C)(C)NC(=O)NC(=O)COC(=O)CNC(=O)c1cc(Cl)cc([N+](=O)[O-])c1	1	-4.6	0%	x	20
O=C(N/N=C/c1cc2c(cc1[N+](=O)[O-])OCO2)c1cccnc1	-8	-0.7	-1%	x	x
O=C(Cc1ccc(-c2ccccc2)cc1)NNC(=S)NCc1ccco1	-1	4.4	6%	x	-2
c1ccc(CC2CCN(C3=Nc4cccc5cccc3c45)CC2)cc1	100	-240	x	-8	-32
Cc1ccc(Cl)cc1N1CCN(CCN)CC1	0	-1.2	3%	-7	-7
COc1ccc2c(c1)cc(C(=O)N/N=C/c1c(O)c(C(=O)O)cc3ccccc13)n2C	1	-16	x	x	x
O=C(NCCCNC(=O)c1ccc(-c2cc(Cl)ccc2Cl)o1)c1cnccn1	-4	3.8	x	x	x
Cc1ccc(CNS(=O)(=O)NCc2cccs2)cc1	9	-0.9	x	x	10
O=C(CCN1CCCCO1)N1CCCC(Nc2ccc(F)c(F)c2)C1 (stereo not drawn)	-3	-2.5	x	x	x
COc1ccnc2c1c(=O)n(Cc1ccc(F)cc1)c(=O)n2C	7	1.5	x	x	x
CCCCN(C(=O)c1cccc(S(=O)(=O)N2CCN(Cc3ccccc3)CC2)c1)c1ccccc1	-19	-2.3	x	x	x
Cc1ccc(C)n1-c1ccc(C(=O)N2CCOCC2)cc1	-8	-0.2	-4%	-22	-4
Cc1ccc(NC(=O)COc2ccc(CCO)cc2-n2nc3ccccc3n2)cc1C	22	3.6	35%	4	-21
CN(C)c1ccc(CNn2cnnc2SCc2ccccc2F)cc1	-10	-0.6	0%	-6	-5
Cc1c(C(=O)Nc2ccc(OC(F)(F)F)cc2)sc2nc3n(c(=O)c12)CCC3	-2	-4.0	2%	-3	11
Cc1ccccc1CN1CCN(CC2CC3C=CC2C3)CC1 (stereo not drawn)	-8	-3.6	-11%	4	-4
CCCCNC(=O)c1cc(C)no1	0	-0.3	-3%	x	8
CCOc1nc(-c2ccccc2Cl)ccc1C#N	9	x	1%	-23	-9
O=C(Cn1[nH]c(=O)c2ccccc2c1=O)OCC(=O)c1ccc(Br)cc1	0	-0.7	x	x	x
CN(Cc1cnccn1)C(=O)CC1C(=O)NCCN1Cc1cccc(F)c1 (stereo not drawn)	-6	-0.8	x	x	x
Cc1cc(C)n2nc(CCc3ccccc3)nc2n1	3	-0.8	-4%	-11	1
CCOC(=O)CNC(=O)CSc1nnc(-c2c[nH]c3ccccc23)n1CC	-2	-2.3	-4%	x	x

# Continuation:
SMILES	Mtb betalactam	RecA splice inh	Mtb growth	YopH inh	Arbovirus inh
O=C(COC(=O)CC12CC3CC(CC(C3)C1)C2)Nc1ncc(Cl)cc1Cl	96	7.9	30%	6	14
Cc1onc(-c2ccccc2)c1C(=O)N1CCN(c2ncccn2)CC1	13	x	1%	x	2
Cc1ccccc1S(=O)(=O)NNC(=O)C(=O)NNc1ccccn1	12	-1.2	x	-26	-19
CC1(C)CC(=O)C2=C(C1)Oc1nc3ccccc3cc1C2C(C#N)C#N (stereo not drawn)	8	14	13%	-46	4
O=C(CSc1nc2c(c(=O)n1-c1ccc(Br)cc1)SCC2)Nc1nccs1	-4	0.6	0%	-38	-8
CCOC(=O)CC1C(=O)NCCN1C(=O)c1ccc(Cl)c(Cl)c1 (stereo not drawn)	-5	0.1	x	x	x
O=[N+]([O-])c1ccc2nc(NCCCO)nc(-c3ccccc3)c2c1	7	-2.5	7%	-26	1
COc1ccc(S(=O)(=O)N2CCCC2)cc1C(=O)O	2	0.1	x	x	x
CCOC(=O)C1CCCN(C2CCN(Cc3nc(-c4ccccc4)no3)CC2)C1 (stereo not drawn)	3	-0.2	5%	x	-2
NC(=O)c1nnn(-c2ccc([N+](=O)[O-])cc2)c1-c1ccccc1	2	1.4	8%	x	x
CC(C)c1ccc(CNC(=O)C(=O)Nc2nccs2)cc1	74	-1.0	50µM*	x	1
COc1cccc(/C=C/C(=O)NNC(=O)CCN2CCN(Cc3ccccc3)CC2)c1	6	0.4	18%	x	x
COc1ccc(N2CCN(CCCNC(=O)CC3Oc4ccc(C)cc4NC3=O)CC2)cc1 (stereo not drawn)	-3	-2.1	8%	0	2
Fc1ccc(NC(=S)Nc2ccc3nccnc3c2)cc1	-3	-14	-4%	x	27
COc1cc(SC)ccc1C(=O)NCCN1CCOCC1	13	0.9	-4%	x	x
O=c1nc(Nc2ccc(Br)cc2)sc2ccc([N+](=O)[O-])cc12	-3	-0.5	0%	x	x
Cc1ccc(C)c2[nH]c(=O)c(CN(Cc3cccnc3)C(=S)NCc3ccco3)cc12	-5	-3.7	-3%	x	x
O=C(CCCc1nc2ccccc2s1)NCc1ccccc1	4	-0.9	3%	-9	-6
Cc1ccc(S(=O)(=O)NC2CCCCCC2)cc1C(N)=O	-2	-2.4	x	x	x
CCOC(=O)c1sc2nc(C)nc(SCC(N)=O)c2c1C	-1	-1.0	0%	-8	-7
COc1ccc(C(=O)C2CCCN(Cc3cnc(C)s3)C2)cc1OC (stereo not drawn)	-5	0.1	-8%	x	3
Cn1nnnc1SCC(=O)Nc1ccccc1Cl	-9	-2.5	-4%	-4	0
Cc1cc(=O)[nH]c(SC(C)C(=O)Nc2cccc3ccccc23)n1 (stereo not drawn)	-3	-4.4	x	x	x
COc1ccc(C(=O)N2N=C3CC(C)(C)OCC3C2c2ccccc2)cc1 (stereo not drawn)	2	-1.0	2%	-47	0
C=CCc1cc(C)ccc1OCCOCCn1ccnc1	5	-0.7	-7%	-22	2
O=C1CC(Sc2nnnn2C2CCCCC2)C(=O)N1c1ccccc1 (stereo not drawn)	2	1.1	-8%	-22	5
COc1cccc(CN(C)CC(=O)Nc2ccccc2N2CCOCC2)c1OC	0	0.4	-5%	x	-16
Cc1cccc(N2CCN(C(=O)C(Cc3ccccc3)NC(N)=O)CC2)c1C (stereo not drawn)	3	-1.8	x	x	x
COc1ccc(C(C)(C)C)cc1NC(=O)COC(=O)c1ccc([N+](=O)[O-])o1	96	11	-9%	x	-5
O=C(O)c1cc(NN=C2c3ccccc3-c3ccccc32)ccc1Cl	12	6.8	x	x	x
CCN(CC)CCCNC(=O)c1cc(Nc2ccc(OC)cc2OC)nc2ccccc12	0	-2.4	x	x	x
CC(C)[C@H](NC(=O)N1CCn2c1nc1ccccc12)C(=O)NC1CC1	7	-2.6	x	x	x
Cc1cccc(-c2nc3c(c(SCC(=O)N4CCCC4)n2)COC(C)(C)C3)c1	3	-1.0	x	x	x
O=C1CC(NS(=O)(=O)c2ccc3ccccc3c2)CN1c1ccccc1 (stereo not drawn)	-3	0.9	x	x	x
Cc1cc(C)cc(NC(=O)c2cccc(NC(=O)c3ccco3)c2)c1	-1	4.1	x	x	x
CC1(C(=O)NC2CCCCCCC2)CC1(Cl)Cl (stereo not drawn)	-6	-0.4	1%	-41	9
CCN=C1SC(C(=O)Nc2ccc(OCC)cc2)CC(=O)N1CC (stereo not drawn)	-3	-5.5	6%	x	-1
CC(C)c1cccc(C(C)C)c1NC(=O)CNCc1ccccc1F	0	2.1	6%	-33	-6

# Looked up above:
# Under Mtb betalactam, `CC(C)c1cccc(C(C)C)c1NC(=O)CNCc1ccccc1F` has 0
# Under Mtb betalactam, `Cc1cccc(-c2nc3c(c(SCC(=O)N4CCCC4)n2)COC(C)(C)C3)c1` has 3
# Under RecA splice inh, `Cc1cc(C)cc(NC(=O)c2cccc(NC(=O)c3ccco3)c2)c1` has 4.1
# Under Mtb betalactam, `CCN(CC)CCCNC(=O)c1cc(Nc2ccc(OC)cc2OC)nc2ccccc12` has 0

# Single records, from the list above. Screens in order: Mtb betalactam | RecA splice inh | Mtb growth | YopH inh | Arbovirus inh
# CCOc1nc(-c2ccccc2Cl)ccc1C#N is listed with 9 | x | 1% | -23 | -9
# O=c1nc(Nc2ccc(Br)cc2)sc2ccc([N+](=O)[O-])cc12 is listed with -3 | -0.5 | 0% | x | x

# The list is partial (hit frequency here may not be typical).
